RN4220 kill: S. aureus RN4220 growth inhibition. OD600, 16 h. inhibition, % (no concentration beside the values). 330,000 compounds, 0.33% hits. AID 1259311;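 active = z-score of -3 or lower and OD600 up to 0.18 on both plates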;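 also: plate controls were untreated cells for no effect and reference antibiotic for full effect; stock transfer was 100 nL into about 80 µL; one replicate is shown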
Sa ugtP lethal: compounds lethal to S. aureus RN4220 ugtP deletion mutant. OD600 growth, 16 h; some inactives read as strong as hits. growth inhibition, % (no concentration beside the values). 330,000 compounds, 0.54% hits. AID 1259309;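 active = z-score under -3 and OD600 up to 0.15 on both plates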;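 also: plate controls were untreated wells for no effect and antibiotic for full effect; wells of about 80 µL received 100 nL stock; the first replicate is given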
PrP UTR inh: inhibition of PrP 5' UTR reporter expression; cell-based PrP 5' UTR mRNA reporter, plate reader; inhibition, % (no concentration beside the values); 340,000 compounds, 0.35% hits; AID 488862;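 active = every replicate at 50% or more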;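 also: 0 = median of the neutral control wells; tested in H4 reporter cells; numbers are from one replicate; inactives centre near -14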
Autofluor counter: counter-screen for toxin protease inhibitors: compound fluorescence. compound autofluorescence counterscreen, microsphere flow cytometry; stronger effect = higher value. fluorescence intensity (test concentration not listed). 360,000 compounds, 3.1% hits. AID 624483;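 active = at least 3 SD above the mean of all compounds, about 16000 in these data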;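 also: 100 nL of 1 mM stock went into each well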
Mtb hypoxia inh: reduces hypoxia-regulated biosensor signal in M. tuberculosis | M. tuberculosis hypoxia-regulated fluorescent reporter, fluorescence | fluorescence inhibition, % (test concentration not listed) | 300,000 compounds, 0.1% hits | AID 1159583;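 active = 35 to 45% if threefold the growth effect, above 45% if 1.5-fold the growth effect; inactive = the rest, general growth blockers included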;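 also: wells of about 50 µL received 100 nL stock; 0% = vehicle wells and 100% = reference inhibitor wells; whole bacteria with a GFP reporter of the hypoxia response; strong numbers were not always called active; many hits fall short of the cut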
BJeLR lethal: kills HRASV12-expressing BJeLR cells; 300,000 compounds, 0.17% hits; inhibition, % (no concentration beside the values); BJeLR (HRASV12) viability, CellTiter-Glo ATP luminescence, 48 h; reference of the scale not given here;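 active = replicate mean above 50%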;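 also: 50 nL library stock added to about 25 µL; numbers are from one replicate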
Mtb hypoxia inh growth: second read-out of Mtb hypoxia inh, no call of its own (marks repeat the call); growth inhibition, %; measured here: M. tuberculosis growth (absorbance);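 0% = vehicle and 100% = reference antibiotic; read after six days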
An asterisk follows results filed as active; . = no result given. Rows are unselected; 4% or so of the library scored in one or more.

entry | molecule | RN4220 kill | Sa ugtP lethal | PrP UTR inh | Autofluor counter | Mtb hypoxia inh | Mtb hypoxia inh growth | BJeLR lethal
1 | CC(C)(C)NC(=O)C(OC(=O)Cn1nnc(-c2ccc(F)cc2)n1)c1ccncc1 (configuration not stated) | 0.9 | 0.0 | -5.9 | 9776 | -0.1 | 2.7 | -10.5
2 | O=C(c1cc(Cl)ccc1Cl)N1CCc2ccccc21 | . | . | -38.7 | 3260 | . | . | -6.4
3 | CC(=O)Nc1ccc(S(=O)(=O)N2CCCC2C(=O)O)cc1 (configuration not stated) | 3.1 | 1.0 | -15.7 | 13097 | -6.1 | 9.3 | 3.5
4 | CCN1C(=O)c2ccc(C(=O)Nc3cccc(C(=O)O)c3)cc2C1=O | -2.4 | -0.2 | -9.2 | 3714 | 18.5 | 7.5 | 2.3
5 | CCOC(=O)Cc1cc(=O)n2[nH]c(C)c(-c3ccccc3)c2n1 | 9.8 | 11.6 | -9.4 | 2449 | . | . | -0.7
6 | Cc1cc(=O)n2ncnc2n1COCCO | 4.4 | -0.5 | -10.3 | 2421 | 8.9 | 4.6 | 4.9
7 | COc1cccc(C(=O)OCCCN(C)C)c1 | 2.9 | 2.7 | 3.0 | 2392 | 2.7 | 10.0 | -1.7
8 | CCS(=O)(=O)N1N=C(c2cccc(NS(C)(=O)=O)c2)CC1c1ccc(C)cc1 (configuration not stated) | 4.9 | -2.0 | -1.0 | 21472* | 0.0 | 5.0 | -5.6
9 | CC(=O)c1ccc(C(=O)N2CCC(CO)(Cc3cccc(C(F)(F)F)c3)CC2)cc1 | 1.5 | 2.7 | -19.6 | 4066 | 0.3 | 12.3 | 4.3
10 | CC(C)=CCc1c(O)cc(O)c2c(=O)c(O[C@@H]3O[C@@H](C)[C@H](O)[C@@H](O)[C@H]3O)c(-c3ccc(O)cc3)oc12 | -0.3 | 6.8 | 23.2 | 4049 | . | . | -0.1
11 | Cc1cccc(NC(=O)CSc2nnc(CCCCCNC(=O)OC(C)(C)C)o2)c1C | 2.6 | -2.8 | -17.7 | 20109* | 7.8 | 4.8 | 16.0
12 | CC(CN(C)Cc1ccccc1)OC(=O)c1ccccc1F (configuration not stated) | 5.9 | 3.7 | 2.9 | 2593 | 10.2 | 12.7 | -0.1
13 | CC(=O)c1ccc(OCCCC(=O)NC(C)c2ccc(S(N)(=O)=O)cc2)cc1 (configuration not stated) | 4.5 | 18.0 | -13.0 | 4563 | 2.9 | 2.6 | 16.0
14 | O=C(NN=C1c2ccccc2-c2ccccc21)c1ccccn1 | 15.3 | -17.0 | . | 11203 | 9.4 | 4.2 | 3.9
15 | CC1CCCCC1NC(=O)c1cc2c(s1)CS(=O)(=O)C2 (configuration not stated) | -3.4 | 12.2 | -9.9 | 10162 | 8.0 | -1.4 | -0.8

An excerpt from above, limited to Mtb hypoxia inh growth, Mtb hypoxia inh and RN4220 kill:
| entry | Molecule | Mtb hypoxia inh growth | Mtb hypoxia inh | RN4220 kill |
| --- | --- | --- | --- | --- |
| 3 | CC(=O)Nc1ccc(S(=O)(=O)N2CCCC2C(=O)O)cc1 (configuration not stated) | 9.3 | -6.1 | 3.1 |
| 4 | CCN1C(=O)c2ccc(C(=O)Nc3cccc(C(=O)O)c3)cc2C1=O | 7.5 | 18.5 | -2.4 |
| 5 | CCOC(=O)Cc1cc(=O)n2[nH]c(C)c(-c3ccccc3)c2n1 | . | . | 9.8 |
| 6 | Cc1cc(=O)n2ncnc2n1COCCO | 4.6 | 8.9 | 4.4 |

Copied from the list:
BJeLR lethal with `O=C(NN=C1c2ccccc2-c2ccccc21)c1ccccn1` is entered as 3.9
BJeLR lethal with `CC(C)(C)NC(=O)C(OC(=O)Cn1nnc(-c2ccc(F)cc2)n1)c1ccncc1` (configuration not stated) is entered as -10.5

Next entries follow.
entry | molecule | RN4220 kill | Sa ugtP lethal | PrP UTR inh | Autofluor counter | Mtb hypoxia inh | Mtb hypoxia inh growth | BJeLR lethal
16 | COC(=O)C(F)(F)Sc1c(C)[nH]c2ccccc12 | 4.8 | -7.0 | -1.1 | 12632 | 5.4 | 2.9 | .
17 | Cc1cccc(/C=N/NC(=O)Cn2nc(C)cc2C)n1 | . | . | -8.5 | 6986 | . | . | -6.3
18 | CC1CCCC(NC(=O)COC(=O)c2ccc3ccccc3n2)C1C (configuration not stated) | 2.2 | -15.8 | -24.3 | 12499 | 15.4 | 1.9 | -10.2
19 | O=C(Cn1cnc2ccccc2c1=O)Nc1ccc2c(c1)OCCO2 | -0.7 | 3.0 | -77.8 | 9498 | 17.2 | 3.7 | 3.9
20 | CCC(C)Sc1nc2ccccc2n1CC(=O)O (configuration not stated) | 7.4 | 12.1 | 0.1 | 9605 | 9.8 | 13.5 | 7.1
21 | COCCN(C(=O)Cc1cccs1)C(C(=O)NCc1ccc(OC)cc1)c1ccccc1 (configuration not stated) | 0.8 | -0.4 | -8.4 | 4322 | 2.8 | 3.6 | 4.5
22 | Cc1n[nH]c(=S)n1N=Cc1cccc(OCc2ccccc2)c1 | 2.9 | 0.7 | . | . | -1.4 | 3.6 | .
23 | CCOC(=O)C(CCCOc1ccc(C)cc1)C(=O)OCC | -5.6 | 10.7 | -14.6 | 2929 | 0.2 | 8.9 | -11.3
24 | CCC(c1nnc(SCC(=O)Nc2ccc(C(N)=O)cc2)n1Cc1ccccc1)N(C)C (configuration not stated) | 3.1 | 3.4 | 5.7 | 6205 | 5.1 | 9.8 | -5.8
25 | COc1ccc(/C=C/C(=O)Nc2ccc(-c3nnc4n3CCCCC4)cc2)c(OC)c1 | -2.6 | 3.3 | -37.3 | 2993 | -21.7 | -4.8 | 9.1
26 | COc1cc(CC(=O)NNC(=O)c2cc(C)oc2C)cc(OC)c1OC | 6.5 | 0.2 | -25.1 | 2588 | 1.3 | 8.8 | -6.4
27 | COc1oc(-c2ccccc2)nc1C(F)(F)F | 6.6 | 5.1 | -8.4 | 10128 | 5.4 | 8.4 | -7.6
28 | CC(C)C(NC(=O)c1ccco1)C(=O)OCC(=O)c1ccccc1 (configuration not stated) | 1.0 | 1.8 | -39.4 | 5532 | 1.0 | 2.0 | -6.8
29 | COc1cc(C=C2NC(=O)NC2=O)cc(Br)c1OCc1ccccc1 | 6.3 | 5.1 | . | . | -2.2 | -0.2 | .
30 | CC1CCCC(C)N1N=Cc1cc(Br)cc(Br)c1O (configuration not stated) | -1.1 | 14.2 | . | . | 7.4 | 2.2 | .
31 | COc1cc(-c2nnc(COC(=O)c3ccc(C)o3)o2)cc(OC)c1OC | 4.3 | 6.9 | -7.9 | 3542 | 3.2 | -0.8 | .
32 | Cc1ccsc1C=NNS(=O)(=O)c1ccc([N+](=O)[O-])cc1 | 11.7 | 7.3 | . | . | 9.0 | 4.9 | .
33 | Cc1ccc(-c2csc(Cc3nc(-c4ccc5c(c4)CCC(=O)N5)cs3)n2)cc1 | 2.2 | -15.1 | -23.3 | 5623 | 8.2 | -2.3 | 0.8
34 | O=C(NCCOc1cccc2cccnc12)c1cccs1 | 2.2 | 2.8 | -18.4 | 3891 | 7.6 | 8.5 | 7.4
35 | CSc1ccc(C=NNC(=O)CC(=O)NC(C)C)cc1 | 1.5 | -0.3 | . | . | 13.0 | 3.3 | .
36 | C/C(=N\NC(=O)c1ccc(F)cc1)c1ccc(NC(=O)Cc2ccccc2)cc1 | . | . | -15.2 | 5361 | . | . | -3.6
37 | COC(=O)C1=C(SC)N(c2ccc(OC)cc2)C(c2ccccc2)CC1=O (configuration not stated) | 6.2 | 2.2 | 1.3 | 10553 | 3.7 | -2.4 | -0.7
38 | CCC(C)N1CCCC1C(=O)Nc1c(C)cc(C)cc1C (configuration not stated) | -8.3 | -9.6 | -29.1 | 3314 | 0.7 | 8.5 | -6.6
39 | COC(=O)CCC(=O)OC1(C)C(=O)C=C2C=C(C3CC3)N(C3CCCCC3)C=C2C1=O (configuration not stated) | 6.6 | 1.6 | -8.0 | 2579 | 23.2 | 12.8 | -0.6
40 | COc1ccc(S(=O)(=O)NCC2CCCN(Cc3cccc(C(C)=O)c3)C2)cc1 (configuration not stated) | 0.2 | 4.4 | 7.7 | 6112 | 0.3 | -9.7 | 0.7
41 | COc1cc(-c2noc(C)c2C(=O)NCCO)cc(OC)c1OC | 3.0 | 1.3 | -19.7 | 3869 | 0.6 | -2.5 | -8.9
42 | COC(=O)c1cccc(Nc2ncnc3sccc23)c1 | 13.3 | 6.6 | -28.6 | 4054 | -22.3 | 2.9 | -6.2
43 | CCOCCn1c(COc2ccc(C)cc2)nc2ccccc21 | 1.6 | 5.8 | -54.9 | 7933 | 16.1 | 12.9 | 3.7
44 | O=C(N/N=C/c1cc(Br)cc(Cl)c1O)c1ccc2c(c1)OCO2 | . | . | 12.9 | 3478 | . | . | 5.5
45 | O=S(=O)(c1ccc(S(=O)(=O)N(Cc2ccccc2)Cc2ccco2)cc1)N1CCCC1 | 0.1 | -3.6 | -3.8 | 16963* | 2.3 | 4.6 | -1.2
46 | CCCCCN(C(=O)CCC(=O)OCC(=O)N1CCCCC1CC)c1c(N)n(CCCC)c(=O)[nH]c1=O (configuration not stated) | 2.9 | 3.8 | -6.2 | 5199 | -1.5 | 5.3 | .
47 | Cc1ccc(C(=O)NC(C)c2ccc(C)c(C)c2)s1 (configuration not stated) | -0.4 | 8.1 | -12.9 | 3960 | 21.7 | 15.4 | -4.3
48 | COC(=O)C1=C(O)/C(=C\c2ccc(OCC(=O)Nc3ccc(OC)cc3)cc2)N=C1C | 1.8 | 5.8 | -6.2 | 5141 | -1.7 | -6.0 | 6.9
49 | COc1ccc(C2NN=C(c3c[nH]c4ccccc34)C2O)cc1 (configuration not stated) | . | . | -21.7 | 7534 | . | . | -3.6
50 | CC(C(=O)NCCc1nc2ccccc2[nH]1)n1cc([N+](=O)[O-])cn1 (configuration not stated) | 11.8 | 5.2 | -15.7 | 4377 | 3.0 | 3.9 | 3.7
51 | CC1CCN(c2ccc(NC(=O)c3ccc(Br)o3)cc2)CC1 | 9.6 | -4.4 | -66.6 | 5324 | 8.1 | -0.1 | -3.7
52 | Cc1cc(NC(=O)NC(=O)c2ccccc2F)no1 | 0.8 | 1.6 | -21.5 | . | 7.4 | 0.0 | 2.0
53 | CCOC(=O)c1c(NC(=O)c2c(C(=O)O)cccc2[N+](=O)[O-])sc(C)c1C | 5.4 | 3.6 | -25.0 | 3326 | 14.1 | 3.1 | 2.6
54 | O=C(c1cc(F)ccc1F)C1CCCN(C(=O)c2ccc(F)cc2Cl)C1 (configuration not stated) | 10.1 | 21.6 | -10.7 | 3427 | 15.3 | 10.3 | -10.4
55 | C[C@@H]1C=C(C(=O)NC2CC2)O[C@H](OCc2ccc(CO)cc2)C1 | . | . | -17.9 | 3554 | . | . | 8.7
56 | COc1cc2oc(=O)cc(-c3ccc(-c4ccc(OC(F)(F)F)cc4)cc3)c2c(OC)c1OC | -1.3 | 45.4 | -20.8 | 3262 | -1.0 | -0.8 | .
57 | Cc1nn(Cc2ccc(Cl)c(Cl)c2)c(C)c1NC(=O)c1cn(-c2ccccc2)nc1-c1ccccc1 | 0.5 | 0.9 | -15.1 | 3680 | . | . | 0.7
58 | CC[C@@H]1C(c2ccccc2)=NN(c2ccccc2)[C@H]1C(=O)N1CCOC1=O | 1.6 | 5.1 | 62.0* | 3692 | -2.2 | -0.3 | .
59 | COc1ccc(C(=O)NCC(c2cccnc2)N2CCN(c3ccc(F)cc3)CC2)cc1OC (configuration not stated) | 2.8 | 14.9 | -8.6 | 6632 | 4.8 | 4.3 | .
60 | Cc1[nH]c2ccccc2c1C=NNC(=S)NC(C)C | -11.5 | -5.3 | . | . | 9.4 | 21.4 | .
61 | CC(C)(CC(=O)O)CC(=O)NCc1c(Cl)cccc1Oc1ccccc1 | 2.5 | 3.2 | -19.1 | 4676 | 4.7 | 5.9 | -3.2
62 | Cc1cc(C)c2c(c1)C(=NNc1ccc(S(N)(=O)=O)cc1[N+](=O)[O-])CCC2 | 8.9 | 24.7 | . | . | 4.3 | -2.6 | .
63 | CS(=O)(=O)N(CC(=O)NC1CCCCC1)Cc1ccc(Cl)cc1 | 6.7 | 7.3 | -16.3 | 17256* | 15.9 | 6.8 | -15.5
64 | COc1ccccc1NC(=O)CN1CCSc2ccccc21 | 8.2 | 8.9 | -35.5 | 4035 | 2.0 | 9.4 | 13.7
65 | O=C(c1cc(F)ccc1F)N1CCC(N2CCC(C(=O)N3CCCC3)CC2)CC1 | -1.2 | -2.5 | 0.6 | 6004 | -9.2 | 2.0 | 13.3

Screening data deposited in PubChem BioAssay by several laboratories.
